Sa growth inh – blocks Staphylococcus aureus growth; S. aureus RN4220 growth, OD600, 20 h, 42 °C; active compounds read low; relative growth, % (no concentration beside the values); 0.53% of 170,000 active; AID 720641;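 active means growth at 42 °C up to 50% and 20 or more points under that at 30 °C, or under 10% at both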;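 further: 300 nL library stock went into each well; scaled to the means of positive and negative controls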
GIV-Gai inh – blocks GIV peptide binding to rat Galpha-i3. Galpha-i3/FITC-GIV peptide fluorescence polarization, 90 min; active compounds read low; scaled: aluminum fluoride 0%, vehicle 100%. percent of control (FP), % (test concentration not listed). 0.42% of 210,000 active;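 active means replicate mean at 85% of control or lower, very high polarization wells dropped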;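 further: lower values mean more displacement of the GIV peptide from Galpha-i3; wells of about 15 µL received 100 nL stock; the first replicate is given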
Target sequence (P08753 whole entry, looked up): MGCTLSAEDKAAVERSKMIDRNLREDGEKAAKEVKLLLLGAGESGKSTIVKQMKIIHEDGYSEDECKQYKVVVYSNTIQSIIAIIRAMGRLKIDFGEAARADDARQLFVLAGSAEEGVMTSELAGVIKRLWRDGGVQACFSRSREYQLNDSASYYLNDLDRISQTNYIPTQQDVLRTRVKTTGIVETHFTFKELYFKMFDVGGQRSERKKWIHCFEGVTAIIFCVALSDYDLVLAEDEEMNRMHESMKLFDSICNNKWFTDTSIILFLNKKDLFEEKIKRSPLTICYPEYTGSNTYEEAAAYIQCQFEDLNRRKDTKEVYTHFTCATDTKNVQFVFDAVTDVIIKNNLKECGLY
HCMV UL50-53 inh – inhibitors of HCMV UL50-UL53 nuclear egress complex interaction. HTRF UL50-UL53 interaction, normalized percent inhibition. inhibition, % (test concentration not listed). 0.15% of 190,000 active;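 active means both replicates at 50% or more, plus weaker picks with an unusually low signal ratio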;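 further: stock transfer was 100 nL into about 20 µL; 0% = negative control wells and 100% = wells with untagged competitor protein; inactives centre near -12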
Sa growth inh second temp – second read-out of Sa growth inh, no call of its own (marks repeat the call); relative growth, %; measured here: growth at 30 °C;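 optical density after 20 h as mean of two plates; 100% = untreated growth and lower means inhibition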
* hit, by the source's call; . = not tested or not shown; & = joins results of further samples.

SMILES	Sa growth inh	Sa growth inh second temp	GIV-Gai inh	HCMV UL50-53 inh
CCN1C(c2ccccc2)C(C)C(=O)C(C)C1c1ccccc1 (configuration not stated)	101	81	107	-11
CCOc1ccccc1N(C)C(=O)NCc1noc2ccccc12	103	97	107	.
Cc1cccc(C)c1NC(=S)N1CCCCC1CO (configuration not stated)	103	91	.	-17
O=C(Nc1cccc(C(=O)N2CCN(c3cccc(Cl)c3)CC2)c1)c1nsc2ccccc12	99	76	108	.
COc1ccc(C2C3=C(CC(c4ccccc4)CC3=O)Nc3onc(C)c32)c(OC)c1 (configuration not stated)	.	.	99	0
Cc1cc(C)cc(NC(=O)c2cc(S(=O)(=O)NCCC3=CCCCC3)ccc2F)c1	112	93	101	.
COC(=O)c1cc(-c2ccccc2)n(CC(=O)O)c1C	115	103	102	7
O=c1[nH]nc(Sc2ncccc2C(F)(F)F)n1C1CCCCC1	112	101	103	3
Cc1ccc(N(CC(=O)NCc2ccc(Cl)cc2)S(=O)(=O)N(C)C)cc1	96	90	97	.
O=C(NC(=S)NCC1CCCCC1)c1ccco1	74	64	.	-24
Cc1ccc(OCC(=O)Nc2ccc(S(=O)(=O)N(Cc3ccccc3)c3ccccc3)cc2)cc1	98	72	104	-2
Cc1nc(N2CCc3ccccc32)nc2c1C(=O)CC(c1ccccc1)C2 (configuration not stated)	.	.	100	-9
C[C@H](NS(=O)(=O)c1cccc2nsnc12)C(=O)Nc1cccc(F)c1	80	90	.	-98
O=S(=O)(Cc1ccc(Cl)cc1)N1CCN(c2ncccn2)CC1	102	106	105	3
O=C(COC(=O)C1CC2CCCC(C1)C2=O)c1ccc(CC(=O)N2CCOCC2)s1 (configuration not stated)	98	82	.	-36
Cn1c(CNC(=O)c2ccc(Cl)cc2)nnc1SCC(=O)N1CCc2ccccc2C1	85	89	102	.
O=C(NCc1cccs1)c1ccc2c(c1)N(Cc1ccccc1)C(=O)c1ccccc1S2	108	103	100	.
COc1cc(NC(=O)C(c2ccccc2)C2CCCC2)cc(C(F)(F)F)c1 (configuration not stated)	103	86	111	-19
CCOC(=O)N1CC=C2C(C#N)=C(N)C(C#N)(C#N)C(CC)C2C1 (configuration not stated)	94	75	126	-33
CCNc1ccc(S(=O)(=O)C(F)(F)F)cc1NC(=O)CC#N	103	98	.	16
COC(=O)c1cc(C)nc(Sc2ccccc2NC(=O)c2ccccc2)n1	115	98	106	0
CCc1cccc(C)c1NC(=O)CN1N=NC2C(=O)N(c3ccc(F)c(F)c3)C(=O)C21 (configuration not stated)	.	.	105	-20
CC1CCCN(S(=O)(=O)c2cc(C(=O)NC3CCCC3)n(C)c2)C1 (configuration not stated)	.	.	105	-16
COc1ccc(CCn2c(=O)[nH]c3cc(C(=O)NCc4ccco4)ccc3c2=O)cc1OC	94	87	108	-9
CC(C)(C)c1oc2cc(Br)c(O)cc2c1C(=O)O	113	104	103	-3
O=C(NC1CCCC1)c1ccc2c(=O)n(-c3ccc(F)cc3)c(SCC(=O)c3c[nH]c4ccccc34)nc2c1	.	.	111	-19
O=S(=O)(c1ccc(Cl)cc1)c1nc(-c2ccco2)oc1SCc1ccccc1F	109	92	103	2
CCOC(=O)c1c(NC(=O)CCCOc2ccccc2C)sc2c1CCC(C)C2 (configuration not stated)	106	85	104	-25
COc1ccc(NC(=O)Cn2c(=O)n(CC(=O)NCCc3ccccc3)c(=O)c3ccccc32)cc1	115	98	101	-35
COc1ccccc1CNC(=O)C(C)n1cccc1C(=O)c1ccccc1 (configuration not stated)	99	82	101	.
Fc1cccc(F)c1/C=N/n1cnnc1	105	88	.	-34
COc1ccc(-c2nc3ccccc3o2)cc1NC(=O)Cc1ccc(Cl)cc1	98	84	110	-14
Cc1nn(-c2ccccc2)c2sc(C(=O)N/N=C/c3ccccc3)cc12	66	85	105	1
O=C(CSc1nc2c(sc3ccccc32)c(=O)n1CCCC(=O)NC1CCCC1)Nc1ccc(F)cc1	103	91	96	-41
Cc1nn2c(c1-c1ccccc1)NC(C(F)(F)F)(C(F)(F)F)NC2=O	106	91	.	-18
COc1cccc(C(=O)Nc2c3c(nc4ccccc24)CCCC3)c1	110	91	110	.
CC12C(=O)N(c3ccc(C(=O)O)cc3)C(=O)C1C1C=CC2C1 (configuration not stated)	89	84	104	-2
COc1cc(Cl)c(NS(=O)(=O)c2cc3[nH]c(=O)c(=O)[nH]c3cc2C)c(OC)c1	108	105	112	.
CC1(C)Cn2c(nc(=O)c3c2NC(=O)C3(O)C(F)(F)F)S1 (configuration not stated)	103	92	107	-11
O=C(CNc1ncnc2ccccc12)NCCO	89	82	100	-10
O=C(CCCn1c(=O)c2sccc2n(Cc2ccccc2)c1=O)NCc1ccccc1	91	86	101	-5
CC1CCc2sc(NC(=O)c3ccc(N4C(=O)C5C6C=CC(C6)C5C4=O)cc3)c(C#N)c2C1 (configuration not stated)	.	.	105	-14
CCOc1ccccc1C(=O)OCC(=O)NC1CC1	87	88	.	-2
CCOC(=O)C1=C(C)N(CCO)C(=O)NC1c1ccc(O)cc1 (configuration not stated)	112	86	.	-3
CC(C)n1c(=O)c2oc3ccccc3c2n(CC(=O)NCc2ccccc2)c1=O	98	90	99	-25
Cc1cccc(COc2ccccc2C2CC(=O)Nc3c2c(C)nn3-c2ccc3nncn3n2)c1 (configuration not stated)	.	.	103	-22
CCC1COC(c2cccn2Cc2ccccc2)=N1 (configuration not stated)	82	90	101	-4
CCc1cc2c(SCC(=O)C(C#N)=C3N(C)c4ccccc4N3C)ncnc2s1	76	85	.	-9
O=C1C=C2N(c3ccccc3)CCOC2(O)c2ccccc21 (configuration not stated)	4.8*	2.4*	.	19
CCOC(=O)c1cccc(NC(=O)C2CCCN(c3cnc4ccccc4n3)C2)c1 (configuration not stated)	.	.	100	0
CC(C)Cc1nnc(C(=O)Nc2cccc(C(=O)NCCc3c[nH]c4ccccc34)c2)s1	.	.	103	-7
c1ccc2c(c1)CCNC2CNCc1ccc2c(c1)OCO2 (configuration not stated)	84	86	99	-7
CCOC(=O)c1c(NC(=O)C2CCN(S(=O)(=O)Cc3ccccc3)CC2)sc2c1CCCC2	.	.	106	-10
CCCN(CCC)CCCNC(=O)C1CCC(CNS(=O)(=O)c2ccc(NC(C)=O)cc2)CC1 (configuration not stated)	88	88	103	.
Cc1oc2c(c(C)cc3oc(=O)c(CC(=O)NCCc4ccccc4F)c(C)c32)c1C	97	87	104	-21
CCOc1ccc(S(=O)(=O)c2cc3cccc(OCC)c3oc2=O)cc1	111	89	104	-11
Cc1cc(C)c(S(=O)(=O)NCCc2csc3nc(-c4ccccc4C)nn23)c(C)c1	.	.	103	-12
C=CCn1c(=NC(=O)CCCC)sc2cccc(OC)c21	99	84	97	-27
CCn1c(=O)c(=O)n(CC)c2cc(N3CCCCC3)c(NC(=O)c3cccc(F)c3)cc21	108	93	100	-4
CCOC(=O)c1cc(-c2ccc(F)cc2)n(CC(=O)N(C)Cc2ccccc2)c1C	91	93	106	.

Reformatted with values under each structure: 7 of the compounds above.
Below each SMILES: Sa growth inh | Sa growth inh second temp | GIV-Gai inh | HCMV UL50-53 inh
- COc1cc(Cl)c(NS(=O)(=O)c2cc3[nH]c(=O)c(=O)[nH]c3cc2C)c(OC)c1
→ 108 | 105 | 112 | .
- CC(C)Cc1nnc(C(=O)Nc2cccc(C(=O)NCCc3c[nH]c4ccccc34)c2)s1
→ . | . | 103 | -7
- O=C(NC1CCCC1)c1ccc2c(=O)n(-c3ccc(F)cc3)c(SCC(=O)c3c[nH]c4ccccc34)nc2c1
→ . | . | 111 | -19
- CCn1c(=O)c(=O)n(CC)c2cc(N3CCCCC3)c(NC(=O)c3cccc(F)c3)cc21
→ 108 | 93 | 100 | -4
- Cc1cccc(C)c1NC(=S)N1CCCCC1CO (configuration not stated)
→ 103 | 91 | . | -17
- O=C(CSc1nc2c(sc3ccccc32)c(=O)n1CCCC(=O)NC1CCCC1)Nc1ccc(F)cc1
→ 103 | 91 | 96 | -41
- O=C(NCc1cccs1)c1ccc2c(c1)N(Cc1ccccc1)C(=O)c1ccccc1S2
→ 108 | 103 | 100 | .

Going on with the list:
SMILES	Sa growth inh	Sa growth inh second temp	GIV-Gai inh	HCMV UL50-53 inh
Cc1ccc(-c2nnn(CC(=O)NC(C)C)n2)cc1	75	100	98	-8
CSc1n[nH]c(-c2cc(C(C)(C)C)oc2C)c1C#N	121	69	105	3
C=CCN=Cc1c(O)[nH]c2ccccc12	85	114	100	-38
O=C1CCS(=O)(=O)c2ccccc2N1Cc1ccccc1	115	92	98	.
CCc1ccc(-n2c(=O)c3cccnc3n2CC(=O)Nc2c(C)cc(C)cc2C)cc1	.	.	104	-19
Cc1ccc(S(=O)(=O)c2c(Nc3ccccc3)sc(C(=O)c3ccc4c(c3)OCO4)c2N)cc1	100	98	102	.
CCCCNC(=O)CN1C(=O)c2ccccc2S1(=O)=O	85	88	101	-17
COC(=O)c1ccc(NN)cc1	77	67	.	-3
c1ccc(COc2ccc(Oc3cnccn3)cc2)cc1	98	98	.	-3
Clc1ccc2nc(-c3cccnc3)c(Nc3ccccc3)n2c1	95	88	101	.
COc1cccc(C(=O)NCC(c2ccccc2)c2c[nH]c3ccccc23)c1 (configuration not stated)	.	.	105	-35
O=C(Nc1ccccc1)c1nc[nH]c1C(=O)O	99	81	107	-18
COCCNc1nc(NCc2ccccc2OC)c2cnn(C)c2n1	98	90	107	.
O=S(=O)(Cc1ccccc1)N1CCN(Cc2ccco2)CC1	103	77	100	-6
Cc1c(Cl)cccc1NC(=O)N1CCN(Cc2cc(=O)n3nc(-c4ccccc4F)sc3n2)CC1	90	90	99	.
COc1ccc(CCN2C(=O)CC(Nc3cc(C(=O)O)ccc3C)C2=O)cc1 (configuration not stated)	86	95	.	6
Cc1ccc(OCc2nc(SCC(=O)N3CCc4ccccc43)n[nH]2)cc1	91	96	.	-32
O=S(=O)(c1ccc(NC(=S)NC2CCCCC2)cc1)N1CCOCC1	96	98	98	-1
Cc1cccn2c(Nc3ccccc3)c(-c3ccc(N4CCOCC4)cc3)nc12	100	108	106&103	-6&2
Fc1cccc(-c2csc(-c3ccc(-c4csnn4)cc3)n2)c1	117	71	103	-5
COc1ccc(-n2c(C)cc(CNS(=O)(=O)c3ccccc3)c2C)cc1	108	90	110	-24
CCOc1ccc2nc(N3CCC(C(=O)Nc4c(C)cccc4C)CC3)sc2c1	123	110	102	-25
CCc1c(C)sc2c1CCN(C(=O)Nc1cc(C)ccc1C)C2c1ccc(OC)cc1 (configuration not stated)	103	83	106	.
CC(=O)Nc1ccc(NC(=O)C(C)OC(=O)C2CCN(C(=O)Nc3ccccc3)CC2)cc1 (configuration not stated)	95	91	.	6
C/C(=N/NC(N)=S)c1ccc(Br)s1	86	70	110	-52
COc1nc(-c2ccccc2)ccc1-c1noc(C(C)C)n1	107	86	103	-2
O=C(C1CCCCC1)n1cnc2ccccc21	104	90	.	-8
O=c1[nH]cc(N=Cc2ccc3c(c2)OCO3)c(=O)[nH]1	109	106	97	-13
O=P(Cc1ccccc1)(c1ccccc1)N(Cc1cccs1)CC1CCCO1 (configuration not stated)	98	93	.	-2
O=S(=O)(c1ccc2c(c1)CCCC2)N1CCc2nc(N3CCCCC3)ncc2C1	.	.	110	-13
Cc1ccc(N2C(=O)CSC23C(=O)N(CC(=O)NCCc2ccccc2)c2ccccc23)cc1C (configuration not stated)	117	90	101	.
COc1ccc(NC(=O)CN(C)C(C)C(=O)Nc2ccc(NC(C)=O)cc2)cc1 (configuration not stated)	99	97	.	-3
CC(=O)Nc1ccc(NC(=O)C(C)Sc2n[nH]c(=O)n2Cc2ccccc2)cc1 (configuration not stated)	77	80	.	-12
Cc1oc2cc3c(C(=O)N4CCN(C)CC4)c(C)oc3cc2c1C(=O)N1CCN(C)CC1	109	89	.	-3
COC(=O)c1sccc1S(=O)(=O)N1CCN(c2ccccc2OC)CC1	108	90	108	.
O=C(Nc1cnc2sc3ccccc3n2c1=O)c1ccccc1Cl	.	.	106	-9
CCOc1ccc(CNc2ccc(NC(=O)c3ccco3)cc2)cc1OCC	94	102	105	-20
N#Cc1ccccc1CN1C(=O)c2ccccc2Sc2ccc(C(=O)OCc3ccco3)cc21	112	98	101	.
CCN(CC)C(=O)N1CCN(C)CC1	94	88	.	-12&-22&-22
CCCn1c(=O)c2ccccc2n2c(=O)n(CC(=O)c3ccc(Br)cc3)nc12	.	.	98	-33
O=C(Nc1nc2ccc(F)cc2s1)c1c(-c2ccc(F)cc2)nc2n1CCS2(=O)=O	.	.	103	-15
CCOC(=O)c1csc(N)n1	83	95	.	-6
FC(F)(F)c1cnc(Oc2ccccc2)c(Cl)c1	.	.	110	-7
COc1ccc(C2=C(C)C(N3CCC(C(=O)NCc4cccnc4)CC3)=NS2(=O)=O)cc1	.	.	103	-64
CCn1nccc1C1CCCN1C(=O)Nc1ccc2c(c1)OCO2 (configuration not stated)	.	.	98	-21
